H5N1 CPE: MDCK cell protection from H5N1 avian flu. cytopathic effect, luminescence, 72 h; active compounds read high; no value below 0 was filed and about half of the inactive calls have no number; reference of the scale not given here. AID 740, 2007. inhibition, % at 50 µM. actives 0.07% (n = 96,000); in the data active = inhibition above about 25%
* hit, by the source's call; i = inactive. An excerpt; the hit share may differ from the screen's.

SMILES	H5N1 CPE
CCOC(=O)Nc1ccc2c(c1)N(C(=O)CCN1CCN(CCO)CC1)c1ccccc1CC2	0.6
CCCCNC(=O)CS(=O)Cc1nc(-c2cccc(Cl)c2)oc1C (stereo unspecified)	i
CCn1c(CNC(=O)c2cccc(C)c2)nc2ccccc21	i
COc1cc(Cl)c(C)cc1NC(=O)CSc1nnc(-c2ccccn2)n1Cc1ccco1	0.4
N=c1c2c(-c3ccccc3)c(-c3ccccc3)n(Cc3ccco3)c2ncn1Cc1ccccc1	i
Cn1ncc(N=Cc2ccccc2O)c1C(=O)Nc1ccccc1	i
O=C(Nc1nc(-c2cccs2)cs1)c1ccc(S(=O)(=O)N2CCCC2)cc1	2.8
COc1ccc(CN(C(=O)CNC(=O)c2ccco2)C(C(=O)NC2CCCC2)c2ccco2)cc1 (stereo unspecified)	0.3
O=C(CSCc1cnn(-c2ccccc2)c1-n1cccc1)N1CCN(Cc2ccccc2)CC1	i
C=CCSc1nc2c(sc3nc(C)cc(C)c32)c(=O)[nH]1	1.5
Cc1ccc2c(CC(=O)OCn3nnc4ccccc4c3=O)coc2c1	i
Cc1ccc(NC2=Nc3ccccc3CC2)cc1	i
COc1ccc(Cc2c[nH]c(=O)[nH]c2=O)cc1	0.5
COCCN(CCOC)c1nc(S(=O)(=O)c2ccc(C)cc2)c(Cl)s1	3.1
COCCOC(=O)C(C#N)c1nc2ccccc2nc1N1CCN(Cc2ccccc2)CC1 (stereo unspecified)	0.6
Cc1ccc(S(=O)(=O)N2CCN(C)CC2)cc1[N+](=O)[O-]	0.1
COc1ccc(NC(=O)CSc2nc3ccccc3cc2Cc2ccccc2)cc1	4.6
O=C(O)C(Cc1ccccc1)N1Cc2ccccc2C1=O (stereo unspecified)	0.2
O=S(=O)(NCCSc1nnnn1-c1ccccc1)c1cccs1	0.1
CCc1nnc(NC(=O)CSc2nnc(CNc3cccc(C)c3)n2-c2ccccc2)s1	0.1
NNC(=O)Cc1cn(-c2ncc(C(F)(F)F)cc2Cl)c2ccccc12	i
O=C(Nc1cccnc1)c1cc2c(ccc3ccccc32)o1	1.6
CC(C)c1nc2oc3c(NCC4CCCO4)ncnc3c2c2c1CCC2 (stereo unspecified)	0.1
CC(C)(C)c1cccc(/C=N/O)c1O	i
COc1ccc(-c2noc(COc3ccc4c(c3)OCO4)n2)cc1	i
COc1ccc2c(c1)cc1n2CCN2CCCN=C12	i
CC1CC(C)CN(CC(=O)Nc2ccc3c(c2)OCCO3)C1 (stereo unspecified)	0.1
Cc1oc(C)c2c(=O)ccc3c(c12)OC(N)=C(C#N)C3c1ccc(F)cc1 (stereo unspecified)	0.5
COc1ccc2sc3c(=O)[nH]c4ccccc4c3c2c1	20
O=C(NC(=S)Nc1ccccc1)c1cc(-c2ccccc2)nc2ccccc12	0.1
COc1cccc(N=Cc2ccc(O)cc2O)c1	i
NC(=O)C1CCN(S(=O)(=O)c2cccc(C(=O)O)c2)CC1	0.8
O=C(NC1CCS(=O)(=O)C1)c1cn(-c2ccccc2)nc1-c1ccccc1 (stereo unspecified)	1.9
COC(=O)CC1NCCNC1=O (stereo unspecified)	0.0
N#CNC(N)=Nc1cccc(Cl)c1	i
COc1ccc(-c2noc(CN3CCOCC3)n2)cc1OC	0.2
Cn1c(=O)c(C(=O)NC2CCCCCCC2)c(O)c2ccccc21	i
CC(=O)Oc1c(S(=O)(=O)c2ccc(C)cc2)c(C)nn1C(C)(C)C	i
Cc1ccc(C(C(=O)NCc2ccccc2)N(C(=O)c2csnn2)c2cccc3ccccc23)o1 (stereo unspecified)	i
O=C(NCc1ccncc1)C1CCN(S(=O)(=O)Cc2ccccc2)CC1	i

Quoted from the listing:
NC(=O)C1CCN(S(=O)(=O)c2cccc(C(=O)O)c2)CC1 in H5N1 CPE reads 0.8
COc1ccc(-c2noc(CN3CCOCC3)n2)cc1OC in H5N1 CPE reads 0.2

(next part)
SMILES	H5N1 CPE
C=C(Cl)COc1cc(C)cc2oc(=O)cc(CC)c12	0.4
C=CCn1c(SCC(=O)Nc2cc(C)on2)nc2sc(CC)cc2c1=O	1.0
CCCCC(=O)Nc1nc2c(OC)ccc(OC)c2s1	i
CCCc1n[nH]c2c1C(=O)C(C(=O)OC)C(C)(C)C2 (stereo unspecified)	i
COc1cccc(-c2cc(C(=O)Nc3cc(C)on3)no2)c1	i
CSC1=NCCN1C(=O)c1ccc(S(=O)(=O)N2CCCCC2)cc1	4.5
O=c1[nH]c2c(n(C3CCCCC3)c1=O)CCC2	i
CC(C)(C)SCCNS(=O)(=O)c1ccc2ccccc2c1	i
COC(=O)c1[nH]c2cc(OC)ccc2c1NC(=O)CCN1CCCCC1	i
CC12CCCCC1=NC(c1ccc(Br)cc1)N2O (stereo unspecified)	1.4
CC1c2nc3ccccc3n2C(CC(=O)NCc2ccccn2)C(=O)N1Cc1ccccc1 (stereo unspecified)	0.6
COc1ccc2[nH]c3c(c2c1)CCn1c-3nc2ccccc2c1=O	i
C/C(=N\NC(=O)c1ccc(Br)cc1)c1ccccc1	0.0
Cc1nn(Cc2ccc(Cl)cc2)c(=O)n1N(C)c1ncc(C(F)(F)F)cc1Cl	0.4
O=C(COc1ccc(Cl)cc1)NCc1nnc(SCC(=O)NC2CCCCC2)o1	0.1
CCCCSc1nc2c(c(=O)[nH]1)CCC2	1.2
Cn1nc(C(=O)Nc2cccnc2)c2ccccc2c1=O	1.3
CCn1c(COc2c(C)cccc2C)nnc1SCC(=O)N1CCN(c2ccccc2)CC1	0.4
Cc1cc(C)nc(N2CCCC(C(=O)NCc3cccc(C(F)(F)F)c3)C2)n1 (stereo unspecified)	i
CCOc1ccc(C(=O)NC(=S)Nc2ccccc2N2CCC(C)CC2)cc1[N+](=O)[O-]	2.4
CCOC(=O)c1nnn(-c2nonc2N)c1CNc1ccc(C)c(Br)c1	1.7
CC(=O)c1ccc(OCC(O)CN2C(C)(C)CC(O)CC2(C)C)cc1 (stereo unspecified)	0.4
Cc1cc(NC(=O)CCCN2C(=O)c3cccnc3C2=O)no1	i
Cc1ccc2c(CC(=O)Nc3c(C)n(C)n(-c4ccccc4)c3=O)coc2c1	0.2
COC(=O)c1c(C(=O)OC)c2n(c1C)Cc1ccccc1C2	i
Cc1nc2ccccc2c(=O)n1-c1ccc(F)cc1	i
O=C(CCNC(=O)c1ccc(Br)o1)NCc1ccc(Cl)cc1	4.0
CCN1CCN(C(=S)Nc2ccc(Cl)cc2Cl)CC1	i
O=C(COc1ccc(Br)cc1)N1CCC(c2ccccc2)C1 (stereo unspecified)	0.6
CCN(CC)CCn1c(NCc2cccc(OC)c2)nc2ccccc21	0.1
Cc1c(NC(=O)C(C#N)=C2CCCCC2)c(=O)n(-c2ccccc2)n1C	i
Cc1ccc(S(=O)(=O)n2cc(-c3ccccc3)c(N)n2)cc1	1.8
CCC1Oc2ccc(C)cc2N(CC(=O)NCCCN2CCCCC2CC)C1=O (stereo unspecified)	i
COc1cc(OC)c(-n2c(C)cc(C=O)c2C)cc1Cl	0.9
COc1ccc(OC)c(S(=O)(=O)NC2CCN(Cc3ccccc3)CC2)c1	1.2
c1ccc(OCc2nc(-c3cccs3)no2)cc1	1.9
O=C(Nc1c(C(=O)N2CCCCC2)cnn1-c1ccccc1)c1ccco1	0.7
Cc1ccc(N(C)S(=O)(=O)c2ccc(C)cc2)cc1	0.2
CCc1cc2c(=O)c(-c3nc4ccccc4n3C)c(COCC(=O)O)oc2cc1OC(=O)C(C)(C)C	0.6
Cc1cccc(Cn2c(NCC(C)O)nc3c2c(=O)n(C)c(=O)n3C)c1 (stereo unspecified)	i
C/C(=N\Nc1cc(Cl)nc(C)n1)c1ccc(Cl)c(Cl)c1	i
Cc1cc(C)nc(SCC(=O)Nc2ccc(S(=O)(=O)NC(C)(C)C)cc2)n1	i
O=S(=O)(NCc1cccnc1)c1ccc(Cl)nc1	0.5
CCC1Oc2ccc(C)cc2N(CC(=O)NCCCN2CCN(Cc3ccccc3)CC2)C1=O (stereo unspecified)	i
COc1cccc2cc(C(=O)N3CCN(C(=O)c4ccco4)CC3)c(=O)oc12	i
COc1ccc(CN(C)C(c2ccccc2)c2nnnn2-c2ccccc2C)c(OC)c1C (stereo unspecified)	1.4
CCOc1c2ccc(C(=O)NCc3ccc(OC(F)(F)F)cc3)cc2nn1C	0.1
Cc1ccc(NC(=O)c2sc3nc[nH]c(=O)c3c2C)c(C)c1	i
Cc1cc(NC(=O)CN2CCN(c3ccccc3O)CC2)no1	0.1
Cc1ccc(SCc2noc(C(=O)NC(C)C)c2C(=O)O)cc1C	i
Additional records
SMILES	H5N1 CPE
CCOC(=O)c1c(NC(=O)CSc2nnc(-c3cccnc3)o2)sc(C(C)=O)c1C	0.1
O=C(CSc1nnc(-c2cccnc2)n1-c1ccccc1)NCc1ccc2c(c1)OCO2	0.6
CS(=O)(=O)N1CCN(c2ccccc2NC(=O)C(c2ccccc2)c2ccccc2)CC1	i
CCc1cc(N2CCOCC2)cc2c1[nH]c1ccccc12	2.1
Clc1ccc(-c2nnc(-c3ccccc3)c(N3CCSCC3)n2)cc1	i
COc1ccccc1N1CCN(Cc2ccccc2F)CC1	i
Cc1ccc(NC(=O)c2ccccc2O)cc1	2.8
COc1ccc(C(c2nnnn2C2CCCC2)N2CCc3ccccc3C2)cc1OC (stereo unspecified)	0.4
CC(C)Oc1ccc(C2CC(=O)N(c3ccccc3)C2=O)cc1 (stereo unspecified)	0.4
CCCNc1nc2c(c(=O)[nH]c(=O)n2C)n1CCC(C)C	i

Reformatted as labelled records: entries from further up.
COCCN(CCOC)c1nc(S(=O)(=O)c2ccc(C)cc2)c(Cl)s1
  H5N1 CPE = 3.1

COCCOC(=O)C(C#N)c1nc2ccccc2nc1N1CCN(Cc2ccccc2)CC1 (stereo unspecified)
  H5N1 CPE = 0.6

Cc1ccc(S(=O)(=O)N2CCN(C)CC2)cc1[N+](=O)[O-]
  H5N1 CPE = 0.1

COc1ccc(NC(=O)CSc2nc3ccccc3cc2Cc2ccccc2)cc1
  H5N1 CPE = 4.6

Further compounds follow:
SMILES	H5N1 CPE
COc1ccc(CNC(=O)c2ccc(N3CCCC3=O)cc2)cc1	i
CC(C)COC(=O)c1cc(-c2ccc(/C=N/n3cnnc3)o2)ccc1Cl	i
CCCNC(=O)COC(=O)c1[nH]c(C)c(C(=O)OCC)c1C	i
COC(=O)/C(=C\Nc1cccc(Cl)c1C)c1ncc(C(F)(F)F)cc1Cl	i
COc1ccc(-c2c(C#N)c(SCc3c(C)noc3C)nc3c2C(=O)CC(C)(C)C3)cc1	i
CCC(=O)OCc1c(C(F)(F)F)nn(C)c1Sc1ccc(F)cc1	0.1
c1ccc(N2CCN(c3ncnc4scc(-c5cccs5)c34)CC2)cc1	i
O=C(NCCCN1CCOCC1)c1cc2c(s1)CCCC2	i
Cc1cc(Nc2cccc(C(F)(F)F)c2)n2nc(C)nc2n1	1.8
CCc1ccc(Nc2oc(C)cc(=O)c2C(C)=O)cc1	i
CC(C)OC(=O)CSc1nnc(-c2ccc(C(C)(C)C)cc2)n1N	i
Cc1c(Br)cc(C(=O)NCc2ccco2)c(C)c1C	i
Cc1ccc(N2C(=O)c3ccccc3C2Nc2ccc(S(=O)(=O)N3CCCCC3)cc2)nc1 (stereo unspecified)	1.9
Cn1c(CCN2CCN(c3ccc(F)cc3)CC2)nc2cc(NC(=O)c3ccco3)ccc21	0.6
Cc1cc(C)c2cc(CN(CC3CCCO3)S(=O)(=O)c3ccc4c(c3)OCCO4)c(=O)[nH]c2c1 (stereo unspecified)	0.7
COc1ccccc1CNCc1cccs1	i
COc1ccc2c(=O)c(-c3ccccc3C)c(C)oc2c1	1.2
COc1ccc2[nH]c(=O)c(CN(CCO)S(=O)(=O)c3ccc4c(c3)OCCO4)cc2c1	0.9
CC1(C)Cc2c(sc(NC(=O)c3ccc(Br)o3)c2C#N)CO1	0.5
O=C(NCCc1csc(-c2ccccc2)n1)c1cccs1	3.7
CCOC(=O)C1CCCC(NS(=O)(=O)c2ccc(NC(C)=O)cc2)C1 (stereo unspecified)	i
COc1ccc2cnn(-c3ccccc3C)c(=O)c2c1OC	i
O=C(Cc1ccccc1)Nc1ccc(N2CCCC2)cc1	0.4
C/C(=N/NC(=O)c1cn(-c2cccc(C)n2)cn1)c1ccc(C)cc1	i
CCCS(=O)(=O)c1nc(S(=O)(=O)c2ccc(C)cc2)c(NCCN2CCOCC2)s1	0.9
CCc1cccc(C)c1NC(=O)CN1C(=O)c2ccccc2S1(=O)=O	0.1
CN1/C(=C/C(=O)c2nc(S(C)(=O)=O)ncc2Cl)C(C)(C)c2ccccc21	i
Cc1ccc(C(C(=O)NC2CCCC2)N(C(=O)c2csnn2)C2CCCC2)o1 (stereo unspecified)	i
Cn1c(=O)c2c(nc(CN3CCC(C(N)=O)CC3)n2Cc2c(Cl)cccc2Cl)n(C)c1=O	0.4
COCCN(CCOC)S(=O)(=O)c1ccc(C(=O)NCCCN2CCOCC2)cc1	2.2

Structural class, the entries above containing a nitro group on carbon
SMILES	H5N1 CPE
Cc1ccc(S(=O)(=O)N2CCN(C)CC2)cc1[N+](=O)[O-]	0.1
CCOc1ccc(C(=O)NC(=S)Nc2ccccc2N2CCC(C)CC2)cc1[N+](=O)[O-]	2.4

Carrying on.
SMILES	H5N1 CPE
COc1ccc(C(C)=O)cc1CN(C)C	0.2
CC(C)CCn1c(N)c(C(=O)NCc2cccs2)c2nc3ccccc3nc21	i
CSc1nsc(SC)c1C(=O)N1CCN(S(=O)(=O)c2ccc(C)cc2)C1C (stereo unspecified)	i
CCOCCc1nnc(NC(=O)c2cccs2)s1	i
CCCC(C(=O)NCc1ccc(OC)cc1)N(Cc1ccco1)C(=O)c1snc(C(N)=O)c1N (stereo unspecified)	0.6
O=[N+]([O-])c1ccc(N/N=C\c2cccn2-c2ccccc2)nc1	2.1
CCn1cc(C2=NC(C(C)C)CO2)c2ccccc21 (stereo unspecified)	0.0
COc1ccccc1CNC(=O)CCN1C(=O)COc2ccc(C)cc21	i

3 records picked at random from those above, as already listed:
SMILES	H5N1 CPE
CSc1nsc(SC)c1C(=O)N1CCN(S(=O)(=O)c2ccc(C)cc2)C1C (stereo unspecified)	i
COc1ccc(C(C)=O)cc1CN(C)C	0.2
CCCC(C(=O)NCc1ccc(OC)cc1)N(Cc1ccco1)C(=O)c1snc(C(N)=O)c1N (stereo unspecified)	0.6

Bioassay records as filed in PubChem BioAssay.
